Sa growth inh – inhibitors of Staphylococcus aureus growth at 42 °C; S. aureus RN4220 growth, OD600, 20 h; active compounds read low; relative growth, % (concentration not given with the values); hit rate 0.53% among 170,000;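 active = growth at 42 °C up to 50% and 20 or more points under that at 30 °C, or under 10% at both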;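 also: 300 nL library stock went into each well; scaled to the means of positive and negative controls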
GIV-Gai inh – GIV-Galpha-i interaction inhibition | percent of control (FP), % (no concentration beside the values) | P08753 | hit rate 0.42% among 210,000 | AID 1224905 | Galpha-i3/FITC-GIV peptide fluorescence polarization, 90 min; active compounds read low; scaled: aluminum fluoride 0%, vehicle 100%;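 active = replicate mean at 85% of control or lower, very high polarization wells dropped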;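 also: wells of about 15 µL received 100 nL stock; the first replicate is given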
Target sequence (P08753 whole entry, looked up): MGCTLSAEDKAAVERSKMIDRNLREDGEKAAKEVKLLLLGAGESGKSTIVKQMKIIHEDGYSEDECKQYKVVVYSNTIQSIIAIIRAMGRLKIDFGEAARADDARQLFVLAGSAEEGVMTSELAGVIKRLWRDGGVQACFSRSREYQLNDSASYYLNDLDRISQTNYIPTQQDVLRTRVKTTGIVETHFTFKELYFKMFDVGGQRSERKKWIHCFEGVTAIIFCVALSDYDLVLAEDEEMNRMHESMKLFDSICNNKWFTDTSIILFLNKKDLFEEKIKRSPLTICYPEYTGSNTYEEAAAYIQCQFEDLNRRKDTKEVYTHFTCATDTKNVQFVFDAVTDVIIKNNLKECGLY
HCMV UL50-53 inh – disrupts HCMV UL50-UL53 complex binding; HTRF UL50-UL53 interaction, normalized percent inhibition; inhibition, % (concentration not given with the values); hit rate 0.15% among 190,000; AID 1918969;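 active = both replicates at 50% or more, plus weaker picks with an unusually low signal ratio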;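 also: stock transfer was 100 nL into about 20 µL; 0% = negative control wells and 100% = wells with untagged competitor protein; inactives centre near -12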
Sa growth inh second temp – further read-out of Sa growth inh, marked with its call; relative growth, %; measured here: growth at 30 °C;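 optical density after 20 h as mean of two plates; 100% = untreated growth and lower means inhibition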
Starred values were filed as active, the others as inactive; / = no result given; & = joins results of further samples.

SMILES	Sa growth inh	Sa growth inh second temp	GIV-Gai inh	HCMV UL50-53 inh
CCOC(=O)c1c(N)sc(C(=O)NC)c1COC(=O)/C=C/c1cccs1	81	93	/	-17
CC(=O)N1CCCSc2ccc(S(=O)(=O)N3CCc4ccccc4C3)cc21	/	/	98	-29
Cc1cc2cc(CNC(=O)c3cc4ccccc4o3)ccc2[nH]1	88	79	101	-39
CC(C)Cc1cc(-c2nn3c(Cc4ccccc4)nnc3s2)n[nH]1	/	/	101	-9
CC(C)C(C)(C#N)NC(=O)CSc1nnc(-c2cccs2)n1N (stereo unspecified)	81	92	/	-12
CCOc1ccccc1Nc1nnc(SCCC#N)s1	83	102	/	-6
Cc1cc(C)n(-c2nncn2N)n1	86	91	/	-23
CCOC(=O)C1=C(CNc2ccc(C)cc2)NC(=O)NC1c1ccccc1 (stereo unspecified)	100	85	104	-8
c1ccc(N=C2CCCC2)nc1	113	86	/	-24
CCC(=O)N1CCc2cc(S(=O)(=O)NCc3ccc(C)cc3)ccc21	101	89	104	-18
CCCn1c(=O)c(C(=O)Nc2nccs2)c(O)c2ccccc21	99	95	102	-13
CC(C(=O)Nc1ccc(Cl)cc1)N(C)Cc1cccs1 (stereo unspecified)	106	75	/	-24
CCOC(=O)c1ccc(N2C(=O)c3[nH]nc(-c4ccccc4)c3C2c2cccs2)cc1 (stereo unspecified)	82	89	107	-6
O=C(c1cnn(-c2ccccc2)c1-n1cccc1)N1CCC(C(=O)N2CCc3ccccc32)CC1	99	84	103	-12
COc1ccc(-c2nc3ccccc3s2)cc1NC(=O)COc1ccccc1C	100	98	105	-37
Cc1nc(N2CCN(c3ccccn3)CC2)c2c(C)c(C(=O)N3CCC(C(N)=O)(N4CCCCC4)CC3)sc2n1	/	/	115	1
CCCC(O)(CCC)C(=O)NN1CCCCC1	103	81	/	-13
Cn1nnc2cc(C(=O)Nc3ccccc3F)ccc21	/	/	98	-3
COc1cnc(-c2ccccc2)nc1Sc1ccccc1	/	/	99	-11
OC(COc1ccccc1Cl)Cn1c(Cc2ccccc2)nc2ccccc21 (stereo unspecified)	/	/	105	-12
Cc1ccc(CSc2nc3ccncc3n2Cc2nc(-c3ccc(Cl)cc3)oc2C)cc1	98	81	104	-35
CCCCNC(=O)C(CC)Sc1nnc(-c2ccc(OC)c(OC)c2)c(-c2ccc(OC)c(OC)c2)n1 (stereo unspecified)	80	91	96	/
Cc1c(C(=O)Nc2ccccc2Br)oc2ccccc12	129	101	103	-19
NNC(=O)Nc1ccccc1	94	101	/	19

Single records, from the list above:
CCCCNC(=O)C(CC)Sc1nnc(-c2ccc(OC)c(OC)c2)c(-c2ccc(OC)c(OC)c2)n1 (stereo unspecified) reads Sa growth inh = 80; Sa growth inh second temp = 91; GIV-Gai inh = 96; HCMV UL50-53 inh = /
Cn1nnc2cc(C(=O)Nc3ccccc3F)ccc21 reads Sa growth inh = /; Sa growth inh second temp = /; GIV-Gai inh = 98; HCMV UL50-53 inh = -3
COc1ccc(-c2nc3ccccc3s2)cc1NC(=O)COc1ccccc1C reads Sa growth inh = 100; Sa growth inh second temp = 98; GIV-Gai inh = 105; HCMV UL50-53 inh = -37

The list goes on:
SMILES	Sa growth inh	Sa growth inh second temp	GIV-Gai inh	HCMV UL50-53 inh
O=C(COc1ccc(F)cc1)OCc1cc(=O)n2nc(C3CCCCC3)sc2n1	92	93	99	/
COC(=O)c1ccc2ccn(CC(N)=O)c2c1	102	109	111	3
COC(=O)c1sc(S(=O)(=O)Nc2ccc3cn[nH]c3c2)c(C(=O)OC)c1C	91	94	/	-5
CCn1c2ccccc2c2cc(NC(=O)c3cc4cc5cc(OC)ccc5nc4o3)ccc21	88	78	97	-37
O=C(Cc1ccccc1)Nc1ccccc1N1CCCC1	103	102	/	0
OCC1C2c3ccccc3C(c3ccccc32)C1CO (stereo unspecified)	133	96	106	-5
COc1cccc(-c2nc(CS(=O)(=O)CC(=O)NCCc3ccc(OC)c(OC)c3)c(C)o2)c1	103	83	105	-15
O=C1CCCc2cc(S(=O)(=O)N3CCC(C(=O)NCc4ccccc4Cl)CC3)ccc2N1	/	/	105	1
O=C(Nc1cccc(C(F)(F)F)c1)/C(=C\c1cccnc1)NC(=O)c1cccs1	113	84	/	-14
N[C@H](C(=O)O)[C@H](O)C(=O)O	/	/	102	-22
Cn1ccnc1SCCS(=O)(=O)c1ccc(Cl)cc1	88	83	101	-15
C=C1c2ccccc2C(=O)N1c1ccc(F)cc1	112	100	103	-13
O=S(=O)(c1ccccc1Cl)N1CCC2(CC1)Nc1ccccc1-n1cccc12	/	/	102	4
COc1ccc(C(=O)C2CC2c2ccc(Cl)cc2)cc1 (stereo unspecified)	/	/	106	-1
Cc1ccc(Cn2ccnc2SCC(=O)Nc2nc3ccccc3s2)cc1	121	93	109	/
CNCc1cn2cc(Cl)ccc2n1	103	93	/	-3
O=C(NCCC1=CCCCC1)C1CCCN(C(=O)c2cnn(-c3ccccc3)c2-n2cccc2)C1 (stereo unspecified)	105	82	102	-9
CCOC(=O)Cn1c(=O)c2cnc(-c3ccccc3)nc2n(C)c1=O	/	/	102	19
CCOC(=O)C1=C(CN2CCN(c3cccc(Cl)c3)CC2)NC(=O)NC1c1ccc(Cl)cc1 (stereo unspecified)	105	89	104	-20
COC(=O)c1cc2ccsc2n1CC(=O)Nc1cc(OC)ccc1OC	/	/	103	-7
Cc1ccc(Cl)cc1Nc1nn2c(=O)c3ccc(C(=O)NCc4ccc(F)cc4)cc3nc2s1	105	101	104	/
Cc1ccc(C2=NCCNC2=O)c(C)c1	93	97	100	-6
CCc1ccc(NC(=O)c2cc(C(C)=O)n3ccccc23)cc1	109	92	103	/
Cc1ccc(-c2c(C)noc2C)cc1S(=O)(=O)Nc1ccc(S(N)(=O)=O)cc1	/	/	98	-48

An excerpt from above in order of heavy-atom count, rising:
SMILES	Sa growth inh	Sa growth inh second temp	GIV-Gai inh	HCMV UL50-53 inh
Cc1ccc(C2=NCCNC2=O)c(C)c1	93	97	100	-6
CCOC(=O)Cn1c(=O)c2cnc(-c3ccccc3)nc2n(C)c1=O	/	/	102	19
COC(=O)c1cc2ccsc2n1CC(=O)Nc1cc(OC)ccc1OC	/	/	103	-7
Cc1ccc(Cn2ccnc2SCC(=O)Nc2nc3ccccc3s2)cc1	121	93	109	/

Later entries.
SMILES	Sa growth inh	Sa growth inh second temp	GIV-Gai inh	HCMV UL50-53 inh
CCOC(=O)N1CCN(CN2C(=S)SC3=NC(=O)CCCN32)CC1	75	73	105	-14
O=C(NCCO)c1ccc(-c2nnc(N3CCOCC3)c3ccccc23)cc1	/	/	98	-13
NC(CO)C(=O)N/N=C/c1ccc(O)c(O)c1O (stereo unspecified)	50	39	108	-14
O=C1CSCc2ccccc21	95	91	106	-26
CC(C(=O)N1CCc2ccccc21)N1CCN(S(=O)(=O)/C=C/c2ccccc2)CC1 (stereo unspecified)	89	87	/	-27
N=C1CNc2ccccc2C(=O)O1	100	90	96	2
Cc1ccccc1-c1nnc(SC(C)C(=O)Nc2ccc3c(c2)OCO3)n1C (stereo unspecified)	105	90	97	-10
O=C(Nc1nnc(S(=O)(=O)N2CCCCC2)s1)c1ccccc1Br	95	88	107	-13
O=C(NC(=S)NCc1cccnc1)c1ccc2c(c1)OCO2	95	95	100	6
CNc1nc(C)c(C(C)(C)C)s1	124	91	/	-1
O=c1cc2nn[nH]n2nc1-c1ccccc1	74	49	113	-31
CC(NC(=O)c1cccnc1)c1nc(-c2ccccc2)no1 (stereo unspecified)	/	/	99	-6
c1ccc(-c2n[nH]c3c2cnc2cc4c(cc23)OCCO4)cc1	/	/	97	-30
COc1ccc(CNC(=O)CCCn2c(=O)c3cccn3c3cccnc32)cc1	101	102	108	/
CCCCSc1nnc2n(C)c(=O)c3sccc3n12	/	/	101	-5
CCC(C)NC(=O)Cn1c(=O)cc(-c2ccccc2)c2c(C)nn(C)c21 (stereo unspecified)	112	87	105	/
COc1ccccc1OCCn1c(NC(=O)c2ccccc2Cl)nc2ccccc21	20	13	103	1
O=C(O)/C(=C/C(=O)c1ccccc1)Nc1ccccc1	103	90	102	-38
CC(C)(C)c1ccc(S(=O)(=O)N2CCCC2C(N)=O)cc1 (stereo unspecified)	84	92	/	-18
Cc1nn(-c2ccccc2)c(C)c1CCC(=O)Nc1ccc(S(C)(=O)=O)cc1	106	90	/	-10
CC(C)NC(=S)NCc1cccnc1	96	94	102	-10
COc1ccc(CC(=O)N2N=C(C)CC2(O)c2ccccc2)cc1OC (stereo unspecified)	/	/	105	-14
CCOc1ccc(CC(=O)N2CCC(n3nc(-c4ccccc4)oc3=O)CC2)cc1	/	/	109	-6
CC(C)CC(=O)Nc1nnc(S(=O)(=O)N(C)Cc2ccc(Cl)cc2)s1	103	85	103	/

2 neighbouring records already listed, quoted:
SMILES	Sa growth inh	Sa growth inh second temp	GIV-Gai inh	HCMV UL50-53 inh
CCOc1ccc(CC(=O)N2CCC(n3nc(-c4ccccc4)oc3=O)CC2)cc1	/	/	109	-6
CC(C)CC(=O)Nc1nnc(S(=O)(=O)N(C)Cc2ccc(Cl)cc2)s1	103	85	103	/

Other structures.
SMILES	Sa growth inh	Sa growth inh second temp	GIV-Gai inh	HCMV UL50-53 inh
Cc1ccc(C)c(S(=O)(=O)Nc2cc3[nH]c(=O)[nH]c3cc2C)c1	/	/	104	-27
Cc1cccc(NC(=O)C(Cc2ccccc2)N2Cc3ccccc3C2=O)c1C (stereo unspecified)	120	88	104	/
CCOc1ccccc1NC(=O)Cn1c(=O)ccc2cc(S(=O)(=O)N3CCC(C)CC3)ccc21	119	79	97	/
NC(=S)N/N=C/c1ccccc1O	74	69	101	-70
Cc1cc(=O)n(CC(=O)O)c2ccccc12	112	90	101&107	-14&9
O=C(NCc1ccco1)c1cc2ccccc2oc1=O	89	85	104	20
CC(C)(C)OC(=O)N1CCCCC1CN (stereo unspecified)	84	86	99	-14
COc1ccc2oc(C(=O)OCC(=O)Nc3ccc(S(=O)(=O)N4CCOCC4)cc3)c(C)c2c1	99	92	/	-9
CC1(C)CC(CCN)(c2ccccc2)CCO1 (stereo unspecified)	108	78	99	-26
O=C(CC1Sc2ccccc2NC1=O)OCC(=O)N1CCN(S(=O)(=O)c2ccccc2)CC1 (stereo unspecified)	86	91	/	-8
O=C(c1ccccc1O)N1N=C(c2ccc(F)cc2)CC1(O)C(F)(F)F (stereo unspecified)	/	/	101	-16
CC1CCN(c2ncnc3c2cnn3-c2ccc(F)cc2)CC1	114	88	104	/
CCCCc1ccc(Nc2nc3cc(Cl)ccc3o2)cc1	91	99	/	8
Cc1cc(C)cc(NC(=O)CCCN2C(=O)COc3ccc(C)cc32)c1	103	90	106	-8
Cc1cccc(NC(=O)c2cccs2)c1C(=O)O	120	83	99	-11
COc1ccccc1CNC(=O)C(C)C	95	98	/	2
O=C(CCCC1=NS(=O)(=O)c2ccccc2N1)Nc1ccccc1	75	82	99	/
O=C(O)c1csc(N2CCSCC2)n1	/	/	102	-19
COc1ccc2c(c1)N(C)/C(=c1/s/c(=C3/C(=O)N(c4ccccc4)N=C3C)n(C)c1=O)S2	105	101	73*	-34
O=C(Nc1ccc(OC(F)F)cc1)NC1CCN(C(=O)OCc2ccccc2)CC1	105	92	105	-14
Cc1cc(C(=O)CSC(C)c2nc3ccccc3c(=O)[nH]2)c(C)n1C (stereo unspecified)	101	97	/	-2
Nn1c(C(=O)N2CCCC2)nc2ccccc2c1=O	104	99	107	5
COc1ccc(CNc2nc(N)n(-c3ccccc3)n2)cc1	90	94	105	/
O=C1CC(NCC2CCCCC2)C(=O)N1c1ccccc1 (stereo unspecified)	107	84	100	-20
CCOc1ccc(C2=NC(c3ccncc3)=Nc3ccc(C)cc3N2)cc1OCC	98	90	102	-3
COC(=O)c1ccc(COC(=O)c2cc3c(s2)CCCCC3)o1	104	94	/	-16
COc1ccc(-c2nn(C)c3sc(C(=O)Nc4cccc(C#N)c4)cc23)cc1OC	79	69	105	-16
COc1ccccc1CNC(=O)CCCn1c(=O)c2ccccc2n(Cc2ccccc2F)c1=O	88	104	103	16
Cn1c(=O)c2cc(S(=O)(=O)NCCC(=O)NC3CCCC3)ccc2n(C)c1=O	88	93	98	/
C=CCN(c1ccccc1)S(=O)(=O)c1ccc2c(c1)OC(C)CN2C(C)=O (stereo unspecified)	110	75	102	/
S=C(Nc1cccnc1)NC1CCCCCCC1	75	63	/	-11
Cc1cc(C)nc(NC(=S)Nc2ccccc2)n1	76	93	/	-16
Cc1nc(-c2cccc(NC(=O)C3CC(=O)N(c4ccc(C)c(C)c4)C3)c2)no1 (stereo unspecified)	/	/	103	8
O=C1c2ccccc2-c2oc(=O)c3ccccc3c21	85	81	107	-25
O=C(NC1CCCCC1)c1ccc2c(c1)N(Cc1ccc(F)cc1)C(=O)c1ccccc1S2(=O)=O	111	102	107	7
Fc1cccc(-n2nnnc2-c2ccc(Cl)c(Cl)c2)c1	98	116	102	-3
CCn1nnc2cc(C(=O)Nc3ccc(C)c(Cl)c3)ccc21	95	90	103	/
CS(=O)(=O)CCC1NC(=O)NC1=O (stereo unspecified)	96	89	/	-4
O=C(O)C1=C(C(=O)NCc2ccc3c(c2)OCO3)CCCC1	93	84	100	-17
CC1CN(C(=O)COC(=O)c2ccc(S(=O)(=O)N3CCCC3)cc2)CC(C)O1 (stereo unspecified)	84	89	/	-17
CCn1c(-n2nc(C)cc2NC(=O)c2ccccc2)nc2ccccc21	93	90	/	-16
CC(C)=CC1C(C(=O)NN)C1(C)C (stereo unspecified)	102	92	/	-21

Source: PubChem BioAssay (ICCB-Longwood Screening Facility, Harvard Medical School)
